Source: PubChem BioAssay (Broad Institute)
MLL AF4-AF9 inh: blocks AF4 peptide binding to human AF9; inhibition, % at 10 µM; AlphaScreen, biotin-AF4 peptide binding to FLAG-AF9; 0.47% of 350,000 active; P42568;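 active = every replicate reaching a set inhibition limit, whatever the replicate mean, cut at about 25% in these data; inconclusive = mean inhibition reaches that limit but some replicates miss it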;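 note: 0% = plate neutral control median and 100% = total signal loss; the record names both 10 and 1 µM as test concentration; the first replicate is given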
Target sequence (P42568 whole entry, looked up): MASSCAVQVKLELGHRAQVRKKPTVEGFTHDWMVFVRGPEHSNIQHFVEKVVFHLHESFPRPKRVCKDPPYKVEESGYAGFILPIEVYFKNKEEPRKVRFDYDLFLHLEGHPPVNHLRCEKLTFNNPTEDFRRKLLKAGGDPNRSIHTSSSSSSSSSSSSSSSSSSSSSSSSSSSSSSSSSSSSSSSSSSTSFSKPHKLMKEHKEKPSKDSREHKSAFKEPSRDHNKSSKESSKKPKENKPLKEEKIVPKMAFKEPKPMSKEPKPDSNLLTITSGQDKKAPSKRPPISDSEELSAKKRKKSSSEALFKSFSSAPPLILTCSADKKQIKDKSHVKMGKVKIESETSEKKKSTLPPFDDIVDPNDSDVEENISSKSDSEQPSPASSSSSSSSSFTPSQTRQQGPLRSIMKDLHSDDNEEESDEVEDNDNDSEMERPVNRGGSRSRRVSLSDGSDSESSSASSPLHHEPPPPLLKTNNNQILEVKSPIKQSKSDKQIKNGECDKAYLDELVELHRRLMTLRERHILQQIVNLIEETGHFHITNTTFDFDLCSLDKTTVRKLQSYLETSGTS
Ecoli rRNA inh: inhibitors of bacterial rRNA selective over humanized ribosomes. E. coli WT GFP vs humanized-ribosome RFP mutants, fluorescence, 24 h; stronger effect = lower value; DMSO median 0, no signal -100. GFP signal change (wild-type ribosome), % (concentration not given with the values). 1.6% of 350,000 active;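 active = significant combined selectivity score with lowered wild-type GFP, culture density cut under 30%, mutant RFP and density less affected; inactive = any of these conditions unmet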; note: one replicate is shown; some compounds called inactive have numbers as strong as hits
Ecoli rRNA inh OD600: second read-out of Ecoli rRNA inh, no call of its own (marks repeat the call); OD600 change, %; measured here: OD600 growth;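 optical density of the mix in the first replicate; 0 = DMSO median and -100 = no signal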
Ecoli rRNA inh RFP: second read-out of Ecoli rRNA inh, no call of its own (marks repeat the call); RFP signal change, %; measured here: RFP humanized mutant strains;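 first replicate; 0 = DMSO median and -100 = no signal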
* hit, by the source's call; & = joins results of further samples. Not all compounds are listed. The share of hits here may be higher or lower than overall.

How did Cc1noc(C)c1S(=O)(=O)Nc1ccc2c(c1)C(=O)N([C@H](C)CO)C[C@H](C)[C@H](CN(C)C(=O)NC(C)C)O2 do in these assays?
MLL AF4-AF9 inh: -3.6; Ecoli rRNA inh: -1; Ecoli rRNA inh OD600: 3; Ecoli rRNA inh RFP: -0.8

Results for Cc1noc(C)c1NC(=O)Nc1ccc2c(c1)C(=O)N([C@@H](C)CO)C[C@@H](C)[C@H](CN(C)Cc1ccc(Cl)c(Cl)c1)OCCCC[C@H](C)O2 ?
MLL AF4-AF9 inh: 1.0; Ecoli rRNA inh: -3; Ecoli rRNA inh OD600: -10; Ecoli rRNA inh RFP: 6.6

Results for CO[C@H]1CC[C@H]2CCN(C)C(=O)[C@H](C)N(C)C(=O)c3cccc(C#N)c3OC[C@H]1O2 ?
MLL AF4-AF9 inh: 0.6; Ecoli rRNA inh: 2; Ecoli rRNA inh OD600: 16; Ecoli rRNA inh RFP: 1.1

Results for C[C@H](CO)N1C[C@H](C)[C@@H](CN(C)Cc2ccc(C(=O)Nc3ccccc3N)cc2)OCc2cnnn2CCCC1=O ?
MLL AF4-AF9 inh: 4.4; Ecoli rRNA inh: -1; Ecoli rRNA inh OD600: 3; Ecoli rRNA inh RFP: 0.4

How did O=C(C[C@H]1C[C@@H]2c3cc(NC(=O)Nc4ccccc4F)ccc3O[C@@H]2[C@H](CO)O1)NCc1ccncc1 do in these assays?
MLL AF4-AF9 inh: 2.7; Ecoli rRNA inh: -2; Ecoli rRNA inh OD600: -9; Ecoli rRNA inh RFP: -1.8

How did Cc1ccc(S(=O)(=O)N(C)C[C@@H]2Oc3cc(-c4cccc(F)c4)ccc3S(=O)(=O)N([C@H](C)CO)C[C@H]2C)cc1 do in these assays?
MLL AF4-AF9 inh: 1.6; Ecoli rRNA inh: 2; Ecoli rRNA inh OD600: -1; Ecoli rRNA inh RFP: -0.5

What do the screens show for `CC1(C(=O)NC2CCCC2)CCN1C(=O)Cc1ccc(-c2ccccc2)cc1` (configuration not stated)?
MLL AF4-AF9 inh: -3.6; Ecoli rRNA inh: -5; Ecoli rRNA inh OD600: -32; Ecoli rRNA inh RFP: -7.3

Results for COc1ccccc1-c1ccc2c(c1)[C@@H]1[C@@H](CCN1S(=O)(=O)c1cn(C)cn1)[C@@H](CO)N2 ?
MLL AF4-AF9 inh: 11; Ecoli rRNA inh: -2; Ecoli rRNA inh OD600: 4; Ecoli rRNA inh RFP: -1.3

How did Cc1ccc(-c2cnc3c(c2)C(=O)N([C@H](C)CO)C[C@H](C)[C@@H](CN(C)S(C)(=O)=O)O3)cc1 do in these assays?
MLL AF4-AF9 inh: 0.2; Ecoli rRNA inh: 2; Ecoli rRNA inh OD600: 1; Ecoli rRNA inh RFP: 1.4

Results for O=C(C1CCOCC1)N1C[C@H]2[C@@H](c3ccccc31)[C@@H](CO)N2Cc1ccc(Cl)cc1 ?
MLL AF4-AF9 inh: -5.4; Ecoli rRNA inh: -4; Ecoli rRNA inh OD600: 0; Ecoli rRNA inh RFP: -0.4

3 compounds picked at random from those above, as already listed:
Results for O=C(C1CCOCC1)N1C[C@H]2[C@@H](c3ccccc31)[C@@H](CO)N2Cc1ccc(Cl)cc1 ?
MLL AF4-AF9 inh: -5.4; Ecoli rRNA inh: -4; Ecoli rRNA inh OD600: 0; Ecoli rRNA inh RFP: -0.4

How did O=C(C[C@H]1C[C@@H]2c3cc(NC(=O)Nc4ccccc4F)ccc3O[C@@H]2[C@H](CO)O1)NCc1ccncc1 do in these assays?
MLL AF4-AF9 inh: 2.7; Ecoli rRNA inh: -2; Ecoli rRNA inh OD600: -9; Ecoli rRNA inh RFP: -1.8

Results for COc1ccccc1-c1ccc2c(c1)[C@@H]1[C@@H](CCN1S(=O)(=O)c1cn(C)cn1)[C@@H](CO)N2 ?
MLL AF4-AF9 inh: 11; Ecoli rRNA inh: -2; Ecoli rRNA inh OD600: 4; Ecoli rRNA inh RFP: -1.3

The list goes on:
What do the screens show for `C[C@H]1CN([C@@H](C)CO)C(=O)c2cc(NC(=O)CCN3CCOCC3)ccc2O[C@H]1CN(C)Cc1ccc(Oc2ccccc2)cc1`?
MLL AF4-AF9 inh: 8.3; Ecoli rRNA inh: 3; Ecoli rRNA inh OD600: 2; Ecoli rRNA inh RFP: -1.2

How did C[C@H]1CN([C@@H](C)CO)C(=O)CCCn2nncc2CO[C@@H]1CN(C)Cc1ccc2cccnc2c1 do in these assays?
MLL AF4-AF9 inh: 2.2&-0.6; Ecoli rRNA inh: 8&-1; Ecoli rRNA inh OD600: 13&2; Ecoli rRNA inh RFP: 3.6&-1.5

What do the screens show for `C/C=C/c1ccc2c(c1)O[C@@H](CN(C)C(=O)NCCC)[C@H](C)CN([C@H](C)CO)S2(=O)=O`?
MLL AF4-AF9 inh: 1.1; Ecoli rRNA inh: -3; Ecoli rRNA inh OD600: 6; Ecoli rRNA inh RFP: 0.8

What do the screens show for `Cc1ccc(-c2ccc([C@@H]3[C@H](CO)N4CCCCN(C(=O)c5ccncc5)C[C@@H]34)cc2)cc1`?
MLL AF4-AF9 inh: -2.6; Ecoli rRNA inh: -1; Ecoli rRNA inh OD600: 1; Ecoli rRNA inh RFP: 0.7

What do the screens show for `O=C(C[C@H]1CC[C@@H](NC(=O)Nc2ccc(F)cc2)[C@H](CO)O1)NCc1ccccn1`?
MLL AF4-AF9 inh: -4.7; Ecoli rRNA inh: 3; Ecoli rRNA inh OD600: 0; Ecoli rRNA inh RFP: 2.8

How did CO[C@@H]1CN(C)C(=O)c2ccc(NC(C)=O)cc2OC[C@H](C)N(C(=O)c2cccnc2)C[C@H]1C do in these assays?
MLL AF4-AF9 inh: 2.3; Ecoli rRNA inh: 1; Ecoli rRNA inh OD600: 6; Ecoli rRNA inh RFP: -0.7

What do the screens show for `Cc1noc(C)c1NC(=O)Nc1ccc2c(c1)C(=O)N([C@H](C)CO)C[C@@H](C)[C@H](CN(C)Cc1ccc(C(F)(F)F)cc1)OCCCC[C@H](C)O2`?
MLL AF4-AF9 inh: 5.9; Ecoli rRNA inh: 1; Ecoli rRNA inh OD600: -1; Ecoli rRNA inh RFP: -1.2

Results for C/C=C/c1ccccc1[C@H]1[C@@H](CO)N(S(=O)(=O)c2cccc(F)c2)[C@H]1C#N ?
MLL AF4-AF9 inh: -0.7; Ecoli rRNA inh: 1; Ecoli rRNA inh OD600: -22; Ecoli rRNA inh RFP: -4.4

What do the screens show for `C[C@@H]1CN([C@@H](C)CO)C(=O)c2cc(-c3ccccc3)cnc2O[C@@H]1CN(C)C(=O)Nc1ccc2c(c1)OCO2`?
MLL AF4-AF9 inh: 1.6; Ecoli rRNA inh: 1; Ecoli rRNA inh OD600: 0; Ecoli rRNA inh RFP: 4.5

What do the screens show for `COCCNC(=O)C1CCCN(Cc2cccc(C(F)(F)F)c2)CC1` (configuration not stated)?
MLL AF4-AF9 inh: 0.6; Ecoli rRNA inh: 9; Ecoli rRNA inh OD600: 5; Ecoli rRNA inh RFP: 2.4

Results for Cc1noc(C)c1NC(=O)Nc1ccc2c(c1)C(=O)N([C@@H](C)CO)C[C@H](C)[C@H](CN(C)C(=O)NC(C)C)O2 ?
MLL AF4-AF9 inh: -1.7; Ecoli rRNA inh: -3; Ecoli rRNA inh OD600: -8; Ecoli rRNA inh RFP: -4.9

What do the screens show for `C[C@@H]1CN([C@@H](C)CO)C(=O)c2cc(N(C)C)ccc2O[C@@H]1CN(C)C(=O)Nc1cccc2ccccc12`?
MLL AF4-AF9 inh: 5.8; Ecoli rRNA inh: -3; Ecoli rRNA inh OD600: 1; Ecoli rRNA inh RFP: -1.1

How did CO[C@H]1CN(C)C(=O)c2ccc(NC(=O)C3CCC3)cc2OC[C@H](C)N(C(=O)NC(C)C)C[C@@H]1C do in these assays?
MLL AF4-AF9 inh: -3.6; Ecoli rRNA inh: 1; Ecoli rRNA inh OD600: -2; Ecoli rRNA inh RFP: 0.4

Results for C[C@@H]1CCCCO[C@@H](CN(C)C(=O)Cc2ccccc2)[C@H](C)CN([C@@H](C)CO)C(=O)c2cc(NC(=O)Nc3ccc(C(F)(F)F)cc3)ccc2O1 ?
MLL AF4-AF9 inh: -2.3; Ecoli rRNA inh: 2; Ecoli rRNA inh OD600: 0; Ecoli rRNA inh RFP: -1.7

What do the screens show for `COc1ccc(S(=O)(=O)N(C)C[C@H]2Oc3ccc(NS(=O)(=O)c4ccc(C)cc4)cc3C(=O)N([C@@H](C)CO)C[C@H]2C)cc1`?
MLL AF4-AF9 inh: -0.3; Ecoli rRNA inh: -5; Ecoli rRNA inh OD600: -8; Ecoli rRNA inh RFP: 3.3

Results for N#C[C@@H]1[C@H](c2ccc(C3=CCCC3)cc2)[C@H](CO)N1C(=O)C1CC1 ?
MLL AF4-AF9 inh: -1.3; Ecoli rRNA inh: 1; Ecoli rRNA inh OD600: 0; Ecoli rRNA inh RFP: 1.7

How did COCCNC(=O)[C@H]1[C@H](CO)[C@H]2Cn3c(ccc(-c4ccccc4F)c3=O)[C@H]2N1C(=O)C1CC1 do in these assays?
MLL AF4-AF9 inh: -1.7; Ecoli rRNA inh: 3; Ecoli rRNA inh OD600: 17; Ecoli rRNA inh RFP: -2.5

How did C[C@@H]1CCCCO[C@@H](CN(C)CC2CC2)[C@H](C)CN([C@@H](C)CO)C(=O)c2cc(NC(=O)Nc3ccccc3)ccc2O1 do in these assays?
MLL AF4-AF9 inh: 17; Ecoli rRNA inh: 0; Ecoli rRNA inh OD600: -1; Ecoli rRNA inh RFP: -0.4

What do the screens show for `COc1ccc(S(=O)(=O)N(C)C[C@@H]2Oc3ccc(NC(=O)Nc4cccc5ccccc45)cc3CC(=O)N([C@@H](C)CO)C[C@@H]2C)cc1`?
MLL AF4-AF9 inh: 2.0; Ecoli rRNA inh: 1; Ecoli rRNA inh OD600: 5; Ecoli rRNA inh RFP: 1.5

What do the screens show for `CCC(=O)N(C)C[C@H]1Oc2cc(-c3cccc(C#N)c3)ccc2S(=O)(=O)N([C@@H](C)CO)C[C@@H]1C`?
MLL AF4-AF9 inh: -1.3; Ecoli rRNA inh: -7; Ecoli rRNA inh OD600: -3; Ecoli rRNA inh RFP: 2.1

Results for O[C@@H]1CN(C2CCN(Cc3ccccc3)CC2)CC[C@H]1N1CCCCCC1 ?
MLL AF4-AF9 inh: inconclusive; Ecoli rRNA inh: 9; Ecoli rRNA inh OD600: 15; Ecoli rRNA inh RFP: 14

Results for C[C@H](CO)N1C[C@H](C)[C@@H](CN(C)Cc2ccccc2)Oc2ncc(-c3cccc(F)c3)cc2C1=O ?
MLL AF4-AF9 inh: -2.1; Ecoli rRNA inh: -3; Ecoli rRNA inh OD600: 3; Ecoli rRNA inh RFP: 2.9

How did Clc1ccc2nc(C3CCCCC3)c(Cc3ccccc3)n2c1 do in these assays?
MLL AF4-AF9 inh: -0.2; Ecoli rRNA inh: 0; Ecoli rRNA inh OD600: 6; Ecoli rRNA inh RFP: 2.2

How did Cc1ccc(OCCC(=O)Nc2ccc(S(=O)(=O)N3CCCC3)cc2)cc1 do in these assays?
MLL AF4-AF9 inh: inconclusive; Ecoli rRNA inh: 5; Ecoli rRNA inh OD600: -32; Ecoli rRNA inh RFP: 8.4

How did C[C@H]1CN([C@@H](C)CO)C(=O)Cc2cc(NC(=O)Cc3ccccc3)ccc2O[C@H]1CN(C)C(=O)NC1CCCCC1 do in these assays?
MLL AF4-AF9 inh: -3.1; Ecoli rRNA inh: 5; Ecoli rRNA inh OD600: 0; Ecoli rRNA inh RFP: 0.3

Results for C[C@@H]1CCCCO[C@@H](CN(C)S(=O)(=O)c2ccc(Cl)cc2)[C@@H](C)CN([C@@H](C)CO)C(=O)c2cc(NC(=O)Nc3ccc4c(c3)OCO4)ccc2O1 ?
MLL AF4-AF9 inh: -0.3; Ecoli rRNA inh: 2; Ecoli rRNA inh OD600: 10; Ecoli rRNA inh RFP: -3.2

What do the screens show for `CC(C)NC(=O)N(C)C[C@@H]1Oc2c(NC(=O)c3ccc(-c4nccs4)cc3)cccc2C(=O)N([C@@H](C)CO)C[C@H]1C`?
MLL AF4-AF9 inh: -10; Ecoli rRNA inh: 2; Ecoli rRNA inh OD600: 4; Ecoli rRNA inh RFP: -0.7

Results for O=C(Nc1ccccc1)N1C[C@@H]2[C@H](c3ccccc31)[C@H](CO)N2CC1CCCC1 ?
MLL AF4-AF9 inh: -1.3; Ecoli rRNA inh: -6; Ecoli rRNA inh OD600: -3; Ecoli rRNA inh RFP: 1.9

How did C/C=C/c1cnc2c(c1)C(=O)N([C@@H](C)CO)C[C@H](C)[C@@H](CN(C)C(=O)NC1CCCC1)O2 do in these assays?
MLL AF4-AF9 inh: -1.9; Ecoli rRNA inh: 0; Ecoli rRNA inh OD600: -4; Ecoli rRNA inh RFP: -1.6

What do the screens show for `COc1ccc(NC(=O)Nc2ccc3c(c2)C(=O)N([C@H](C)CO)C[C@H](C)[C@@H](CN(C)C(=O)Nc2cccc4ccccc24)OCCCC[C@@H](C)O3)cc1`?
MLL AF4-AF9 inh: -1.1; Ecoli rRNA inh: 3; Ecoli rRNA inh OD600: 10; Ecoli rRNA inh RFP: -0.7

Results for C[C@@H]1CN([C@@H](C)CO)S(=O)(=O)c2ccc(-c3ccc(C#N)cc3)cc2O[C@H]1CN(C)C(=O)Nc1cc(F)ccc1F ?
MLL AF4-AF9 inh: -16; Ecoli rRNA inh: -4; Ecoli rRNA inh OD600: -10; Ecoli rRNA inh RFP: 0.1
